Screening results from PubChem BioAssay.
Six1-Eya2 blk = qHTS Assay for Inhibitors of the Six1/Eya2 Interaction. activity change, % (no concentration beside the values). AlphaScreen GST-Six1/His-Eya2 binding, biochemical; active compounds read low; control for the full effect not named in the record. 360,000 tested, 0.56% active; in the data active = activity change below about -65%; inconclusive = about -30% to -65%; inactive = above about -30%; further: on the % scale 0 is the no-effect control and ±100 the full control effect
Target sequence (O00167 whole entry, looked up): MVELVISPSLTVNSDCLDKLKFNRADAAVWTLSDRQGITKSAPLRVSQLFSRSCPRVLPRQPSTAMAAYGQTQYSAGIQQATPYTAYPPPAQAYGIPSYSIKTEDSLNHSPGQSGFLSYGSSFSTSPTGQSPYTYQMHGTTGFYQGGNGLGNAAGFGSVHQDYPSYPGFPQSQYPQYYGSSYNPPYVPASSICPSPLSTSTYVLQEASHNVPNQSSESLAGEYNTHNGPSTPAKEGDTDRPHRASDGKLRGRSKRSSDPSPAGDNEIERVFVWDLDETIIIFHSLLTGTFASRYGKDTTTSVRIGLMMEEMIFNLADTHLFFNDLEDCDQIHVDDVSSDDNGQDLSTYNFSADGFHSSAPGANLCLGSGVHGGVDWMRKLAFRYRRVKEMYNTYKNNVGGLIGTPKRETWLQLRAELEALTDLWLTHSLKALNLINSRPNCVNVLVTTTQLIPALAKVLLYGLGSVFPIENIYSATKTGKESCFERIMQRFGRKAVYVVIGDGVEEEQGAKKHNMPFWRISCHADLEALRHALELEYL
Target sequence (Q15475 whole entry, looked up): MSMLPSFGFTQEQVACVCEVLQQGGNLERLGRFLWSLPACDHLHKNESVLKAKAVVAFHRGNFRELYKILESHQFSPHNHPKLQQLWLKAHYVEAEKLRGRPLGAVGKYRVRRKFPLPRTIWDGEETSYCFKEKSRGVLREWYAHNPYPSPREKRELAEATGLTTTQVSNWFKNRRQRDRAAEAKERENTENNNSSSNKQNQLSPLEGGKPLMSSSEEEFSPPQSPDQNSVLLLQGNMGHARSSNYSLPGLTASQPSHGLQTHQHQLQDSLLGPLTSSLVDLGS
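Six1/Eya2 binding was read as AlphaScreen signal after compounds were pinned into GST-Six1 plus His-tagged Eya2 (5X stock 250/500 nM) in pH 8.0 Tris/NaCl/TCEP buffer, beads added, then incubated 1 h, 37 C, dark.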
D2 PAM = Beta-Arrestin HTS for Positive Allosteric Modulators of the Human D2 Dopamine Receptor: Potentiators; D(2) dopamine receptor (Homo sapiens), P14416; AID 624464, 2012; DiscoveRx D2 beta-arrestin cells, luminescence, 90 min; 100% = 57 uM dopamine signal; potentiation, % (test concentration not listed); 360,000 tested, 0.23% active; active = potentiation of 50% or more; inconclusive = 30% to 50%; inactive = 30% or less;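 further: compound concentration not given in the record; tested on top of an EC20 dose of dopamine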
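D2 cells co-treated with compound plus 50 nM dopamine (EC20) for 90 min at 37 deg C to detect potentiation. Beta-arrestin recruitment was read as enzyme-fragment luminescence after 1 h at ambient temperature. Full response was set by 57 uM dopamine.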
TRPV1 PAM = HTS Assay for Compounds that Act as Potentiators of the Vanilloid Receptor 1; Transient receptor potential cation channel subfamily V member 1 (Homo sapiens), Q8NER1; TRPV1-expressing cells, Fluo-8 calcium influx, capsaicin EC20 potentiation; host cell line not named in the record; control for the full effect not named in the record; potentiation, % at 8.33 µM; 320,000 tested, 0.02% active; AID 540277, 2011; active means potentiation above 80%; inconclusive means 30% to 80%; inactive means below 30%; further: 0% is about no effect
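Fluo-8 calcium influx in TRPV1-expressing cells, kinetic read (ex 480/em 520 nm). Compound added and read 3 min for agonist activity, followed by capsaicin at EC20 final and 2 min further read for enhancement.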
CtBP-E1A inh = qHTS Assay for Inhibitors of the CtBP/E1A Interaction; AlphaScreen GST-E1A/His-CtBP binding, 1536-well; active compounds read low; control for the full effect not named in the record; 340,000 tested, 0.49% active; activity change, % (concentration not given with the values); AID 651724, 2012; in the data active means activity change below about -65%; inconclusive means about -30% to -65%; inactive means above about -30%; further: on the % scale 0 is the no-effect control and ±100 the full control effect
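Steps: dispense buffer (Tris pH 8.0, NaCl 300 mM, TCEP 1 mM, BSA, Tween 20); add 5X protein mix (GST-E1A, His-CtBP, 125 nM each); pin 23 nL compound; 2 h at 37 °C, dark; add 5X beads (50 ug/mL); 1 h; read.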
TRPML1 agonist = qHTS for Agonists of the Human Mucolipin Transient Receptor Potential 1 (TRPML1); 410,000 tested, 0.12% active; Mucolipin-1 (Homo sapiens), Q9GZU1; activation, % (no concentration beside the values); AID 624414, 2012; TRPML1-expressing cells, Ca2+ dye fluorescence, FDSS; host cell line not named in the record; reference of the full effect not given here; in the data active = activation above about 50%; inconclusive = about 30% to 50%; inactive = below about 30%; further: 0% is about no effect; the text of the record puts the active cut at 80%
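Agonist activity was taken from a 110 s kinetic Ca2+ dye read on the FDSS after pinning compounds onto TRPML1-DL cells. The cells were seeded at 1,500/well with Tet inducer, incubated about 16 h, then dye-loaded at room temperature.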
TRPML1 blocker = qHTS for Inhibitors of the Human Mucolipin Transient Receptor Potential 1 (TRPML1); activity change, negative = inhibition, % (concentration not given with the values); AID 624415, 2012; TRPML1-inducible cells, Ca2+ dye fluorescence, FDSS; active compounds read low; inhibition of EC80 agonist-evoked calcium signal; 390,000 tested, 0.02% active; Mucolipin-1 (Homo sapiens), Q9GZU1; in the data active means activity change below about -50%; inconclusive means about -30% to -50%; inactive means above about -30%;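 further: stimulus is agonist 54-4 at its EC80 concentration; on the % scale 0 is the no-effect control and ±100 the full control effect; the text of the record puts the active cut at -80%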
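Tet-induced TRPML1-DL cells loaded with Ca8 no-wash calcium dye were read kinetically on FDSS. Compound addition was followed by EC80 agonist 54-4 (4 uM final); inhibition was read over 110 s.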
An asterisk follows results filed as active; ? = inconclusive; . = not tested or not shown; & = joins results of further samples.

SMILES | Six1-Eya2 blk | D2 PAM | TRPV1 PAM | CtBP-E1A inh | TRPML1 agonist | TRPML1 blocker
CC(Oc1ccc(Br)cc1)C(=O)N1CCN(c2ccccn2)CC1 (centres undefined) | 2 | 0 | -14 | 0 | 0.6 | -1
COc1ccc([N+](=O)[O-])cc1C1NN=C(c2cccc3ccccc23)S1 (centres undefined) | 0 | -6 | 18 | -2 | -1.6 | 15
COc1ccc(CCNC(=O)Cn2nc(C)c3c(C)n(-c4ccccc4)nc3c2=O)c(OC)c1 | -2 | -5 | 16 | -4 | -1.6 | 4
CCP(=O)(c1cccc([N+](=O)[O-])c1)c1cccc([N+](=O)[O-])c1 | 2 | -6 | 4 | 1 | -0.7 | 5
O=C(NCc1ccccc1F)C1CCCN(C(=O)Nc2ccc(F)cc2)C1 (centres undefined) | 10 | -3 | -18 | -5 | 0.7 | -11
O=C(CNC(=O)c1ccco1)OCc1ccc(C(=O)Oc2ccccc2)cc1 | 0 | 5 | -25 | 4 | -0.5 | -1
CC(C)CCNC(=O)CNC(=S)N(Cc1ccccc1)Cc1cccnc1 | -18 | -8 | 5 | 3 | -0.3 | -15
CCOC(=O)CSc1nc(-c2ccccc2)nc2ccccc12 | 55 | 2 | -4 | 49 | 4.1 | 4
CN1CCN(CCCNC(=O)CCc2nnc3n(Cc4ccccc4Cl)c(=O)c4ccccc4n23)CC1 | -2 | -6 | -6 | . | -0.5 | -6
O=C(c1cc(Br)c(Br)s1)N1CCN(C/C=C/c2ccccc2)CC1 | -13 | -38 | -17 | -18 | 3.5 | -11
Cc1csc(=O)n1CCC(=O)OCC(=O)N(CC(C)C)c1c(N)n(Cc2ccccc2)c(=O)[nH]c1=O | -9 | -7 | 3 | 0 | -0.3 | 3
CCC/C=C1/CCCOC(C(=O)NCCNCCO)(C(F)(F)F)C1 (centres undefined) | -7 | -13 | . | 3 | -0.6&0.7 | -25&15
COc1ccc(CS(=O)(=O)CC2(O)CCN(C(=O)c3cccc(C(F)(F)F)c3)CC2)cc1 | 0 | -5 | -11 | -21 | -0.2 | 32
CC(NC(=O)c1ccc(CS(=O)(=O)c2ccc(Cl)cc2)o1)c1ccc2c(c1)OCCO2 (centres undefined) | -6 | -12 | -2 | 0 | -0.4 | -13
O=C1/C(=C/c2cccs2)SC(=S)N1c1cccc(O)c1 | -19 | -2 | 5 | -29 | -0.6 | 1
O=C(CSc1nnc2ccccn12)NNC(=O)c1cccc(Cl)c1 | 6 | -18 | . | 11 | -0.4 | -9
COc1ccc(C(C)=O)cc1CC(=O)Nc1ccccc1-c1ccccc1 | 25 | 4 | -13 | 0 | 3.0 | -18
CCc1ccc(OC2(C)CCN(CCOc3ccc(C)cc3)C2)cc1 (centres undefined) | 5 | -3 | . | 5 | -0.7 | .
O=C(COC(=O)CNC(=O)c1ccc(Cl)c([N+](=O)[O-])c1)NNC(=O)c1cccs1 | 4 | -27 | -3 | 4 | -0.7 | 0
O=C(O)CC(c1ccc(Cl)cc1)N1Cc2ccccc2C1=O (centres undefined) | -5 | 1 | 25 | 14 | 0.6 | 6
O=C(CCc1ccccc1)NNC(=O)c1ccccc1F | 1 | -4 | 7 | . | 0.0 | 3
CC(=O)c1cc(CN2CCN(CCc3ccccc3)C(CCO)C2)cs1 (centres undefined) | 4 | -10 | 7 | 8 | 0.8 | -16
COc1ccc(CC(=O)N/N=C/c2cccs2)cc1OC | 4 | 0 | 8 | 0 | 3.4 | 24
COc1ccc([N+](=O)[O-])cc1-c1nc2ccccc2nc1-c1ccccc1 | -12 | 2 | 18 | . | -0.6 | -1
O=C(CSc1nc2ncccc2[nH]1)NCCc1ccccc1 | 5 | -4 | 1 | 5 | -0.6 | -4
O=C(CN1CCc2ccccc2C1)Nc1ccc(F)cc1 | 1 | -3 | -2 | 15 | -0.5 | 20
O=C(O)C1CCCN(CCC=C(c2ccccc2)c2ccccc2)C1 (centres undefined) | -7 | -12 | . | -6 | 0.6 | 16
COC(=O)c1cc(C)nc(Sc2ccccc2N)n1 | -6 | -3 | . | 5 | 0.0 | -10
Cc1ccc(/C(N)=N/OC(=O)C23CC4CC(CC(C4)C2)C3)cc1 | 17 | 6 | 4 | 18 | 3.2 | -3
O=C(O)c1ccc(COCC(F)(F)F)cc1 | 4 | -1 | 9 | -2 | -0.1 | -7

An excerpt from above in order of their number in CtBP-E1A inh, low to high:
SMILES	CtBP-E1A inh
COc1ccc(CS(=O)(=O)CC2(O)CCN(C(=O)c3cccc(C(F)(F)F)c3)CC2)cc1	-21
COc1ccc(C(C)=O)cc1CC(=O)Nc1ccccc1-c1ccccc1	0
CC(=O)c1cc(CN2CCN(CCc3ccccc3)C(CCO)C2)cs1 (centres undefined)	8

The list continues:
SMILES | Six1-Eya2 blk | D2 PAM | TRPV1 PAM | CtBP-E1A inh | TRPML1 agonist | TRPML1 blocker
Cc1cn(S(=O)(=O)c2ccccc2[N+](=O)[O-])cn1 | 3 | -35 | -7 | 0 | 0.6 | -4
O=C1N[C@@H](Cc2cnc[nH]2)C(=O)N2CCC[C@@H]12 | -7 | -5 | -15 | -2 | 0.3 | -16
COCCNC(=O)C(c1ccc(C)o1)N(CCOC)C(=O)Cn1nnc2ccccc21 (centres undefined) | 2 | 1 | 3 | 5 | 1.2 | 6
Cc1ccc(C)c(C(=O)N(C)CC(=O)Nc2ccccc2C(F)(F)F)c1 | 8 | -2 | 5 | 6 | 0.2 | 15
Cc1cccc(C)c1NC(=O)CN(C)CC(=O)Nc1ccccc1Br | 2 | -7 | -3 | 2 | 1.7 | 11
Cc1ccccc1C(=O)NC(=S)Nc1ncccn1 | -2 | -5 | 4 | 5 | 0.6 | 24
Cn1c(SCC(=O)NCc2ccc3c(c2)OCO3)nnc1-c1cccs1 | 2 | -8 | -7 | 2 | 2.1 | 9
CCOCCCNC(=O)CSc1ccccc1 | 5 | -8 | 7 | -6 | 0.0 | 1
Cc1ccc(C(=O)NCC(=O)OCCOc2ccccc2Cl)cc1 | 8 | -5 | -8 | -4 | 2.5 | -12
COc1ccc(CCNC(=O)CSc2nnc(-c3cccc(F)c3)o2)cc1OC | 1 | -9 | -7 | -3 | -0.3 | 5
CCC(=O)OCCn1c(=O)c2ccccc2c2ccccc2c1=O | -1 | -6 | 11 | 6 | 1.3 | -1
COc1ccc(-c2cc([C@H]3[C@@H]4C=CCC[C@@]4(C)C(=O)N3Cc3ccccc3)ccc2F)cc1OC | -22 | -2 | 30 | -17 | 1.1 | 30
CC/C(=C/c1sc2ccccc2[n+]1CC)SC | -4 | -16 | -1 | 15 | -0.3 | -2
C=CCc1ccccc1OCC(=O)O | -2 | -10 | -6 | . | -0.9 | -14
CN1CCN(c2ccc(S(=O)(=O)N3CCCCC3)cn2)CC1 | -5 | -17 | 6 | -2 | -0.5 | -1
COc1c2c(c(OC)c3ccccc13)[C@]1(OC2)O[C@H](CCO)C[C@H](O)[C@H]1O | 0 | -9 | . | -2 | -0.4 | -4
O=C(Nc1cccc(F)c1)NC1CCCc2ccccc21 (centres undefined) | 13 | -10 | -3 | 7 | -0.3 | -3
Cc1ccccc1N(CC(=O)NC1CCCC1)C(=O)CS(=O)CC(=O)Nc1ccc2c(c1)OCO2 (centres undefined) | 2 | -22 | 0 | 15 | -0.1 | 0
CCOC(=O)c1cc(C#N)c(Nc2ccccc2OC)nc1C(F)(F)F | -10 | -3 | . | -17 | 0.2 | 0
COc1ccc(OCC(=O)OCC(=O)NC2CCCC2)cc1 | 7 | -13 | . | 14 | 0.2 | 4
O=C(NCc1ccc2c(c1)OCO2)C1COc2ccccc2O1 (centres undefined) | -2 | -3 | -6 | 0 | -0.5 | -2
CC(=O)c1cnc2c(-c3ccccc3)c(C)nn2c1C | 1 | -9 | 3 | 4 | -0.9 | -29
CCOc1ccc2nc(SCC(=O)NC3CC3)sc2c1 | 1 | -6 | -13 | 3 | 1.1 | 4
CCOC(=O)C1CCCN(CC(=O)Nc2c(F)c(F)c(F)c(F)c2F)C1 (centres undefined) | -6 | -20 | -17 | -9 | -0.9 | 4
CCC(=O)Nc1ccc(S(=O)(=O)NCC2CCCO2)cc1 (centres undefined) | 0 | -7 | -1 | 0 | -0.4 | -11
S=C(NCc1ccco1)Nc1ccc(Cl)c(Cl)c1 | -6 | -8 | -10 | 0 | 0.6 | 11
CCc1nc2cc(C)nn2c2nc3ccccc3n12 | -28 | 14 | -6 | -22 | 0.8 | 7
CC(=O)Nc1ccc(-c2csc(Nc3ccc(Cl)cn3)n2)cc1 | 8 | -6 | 14 | -6 | 0.4 | 34
CN(CC(=O)NC(=O)NC1CCCCC1)Cc1ccccc1 | -1 | -5 | -26 | . | -0.5 | 8
O=C(CSc1nnc(-c2ccncc2)o1)NCc1ccccc1Cl | -8 | -5 | -3 | 0 | -0.4 | 40
COC(C[C@H](O)[C@H](C)[C@H](O)COCc1ccccc1)OC | 4 | 7 | ? | 5 | -0.8 | 30
CSC1=C(C#N)C(c2ccccc2C)C(C#N)=C(N)N1 (centres undefined) | -2 | -26 | -4 | 6 | 0.4 | 1
CC(=O)Nc1ccc(OCCOc2ccc(/C=C3/C(=N)N4C=CSC4=NC3=O)cc2)cc1 | -5 | -3 | 4 | -2 | 4.0 | 9
C/C(Cn1cnc([N+](=O)[O-])n1)=N/NC(=O)COc1ccccc1Cl | 0 | 0 | -23 | 1 | -0.3 | 2
Cc1cccc(NC(=O)CNC(=O)c2cccs2)n1 | 10 | 16 | 15 | -12 | 0.6 | -22
COc1ccc(/C=C2/C(=O)N(c3ccccc3)N=C2C)cc1OC | 3 | -2 | 18 | 0 | -0.3 | -2
COc1ccc(CNc2ncnc3cc(Cl)ccc23)cc1 | -1 | -4 | -1 | 3 | -0.6 | 9
CCc1ccc([C@H]2[C@@H]3C(=O)C[C@@H]4C(=O)N(C)C(=O)[C@@H]4[C@@H]3CN2S(=O)(=O)c2ccc(C)cc2)cc1 | 0 | -1 | . | 1 | -0.2 | .
CC(C)(C)C(=O)c1c(N)[nH]c(C(=O)c2ccccc2)c1-c1ccccc1Br | -6 | . | . | -1 | -1.0 | .
O=C(Nc1ccccc1Cl)C1CCCN(S(=O)(=O)c2cccc3cccnc23)C1 (centres undefined) | -16 | -11 | 5 | . | 0.0 | -25

Copied from the list.
COc1ccc(/C=C2/C(=O)N(c3ccccc3)N=C2C)cc1OC @ CtBP-E1A inh = 0
COC(C[C@H](O)[C@H](C)[C@H](O)COCc1ccccc1)OC @ TRPML1 agonist = -0.8
COc1ccc(CNc2ncnc3cc(Cl)ccc23)cc1 @ Six1-Eya2 blk = -1
CSC1=C(C#N)C(c2ccccc2C)C(C#N)=C(N)N1 (centres undefined) @ Six1-Eya2 blk = -2
CC(C)(C)C(=O)c1c(N)[nH]c(C(=O)c2ccccc2)c1-c1ccccc1Br @ CtBP-E1A inh = -1
C/C(Cn1cnc([N+](=O)[O-])n1)=N/NC(=O)COc1ccccc1Cl @ TRPML1 agonist = -0.3
